Screening results (PubChem BioAssay)
H5N1 antiviral: MDCK cell protection from H5N1 avian flu | cytopathic effect, luminescence, 72 h; stronger effect = higher value; no value below 0 was filed and about half of the inactive calls have no number; reference of the scale not given here | inhibition, % at 50 µM | 0.07% of 96,000 active; in the data active = inhibition above about 25%
Numbers without * were called inactive.

The opening two compounds, ahead of the listing:
What do the screens show for `Cc1ccc(C)c(N2CCN(C(=O)C3CCN(S(=O)(=O)c4cccc5nsnc45)CC3)CC2)c1`?
H5N1 antiviral: 3.9

Results for Cc1cccc(-n2ncc(C#N)c2-n2cccc2)c1 ?
H5N1 antiviral: 0.8

All compounds of this part, repeating the preview:
What do the screens show for `Cc1ccc(C)c(N2CCN(C(=O)C3CCN(S(=O)(=O)c4cccc5nsnc45)CC3)CC2)c1`?
H5N1 antiviral: 3.9

Results for Cc1cccc(-n2ncc(C#N)c2-n2cccc2)c1 ?
H5N1 antiviral: 0.8

Results for CCc1cc2c3c(c1)/C(=C1/SC(N)=NC1=O)C(=O)N3C(C)(C)C=C2C ?
H5N1 antiviral: 0.4

How did Cc1cccc(N2CCN(C(=O)c3ccc(N4CCCC4=O)cc3)CC2)c1C do in these assays?
H5N1 antiviral: 1.6

How did Oc1ccc2cccnc2c1 do in these assays?
H5N1 antiviral: inactive

Results for CCOC(=O)Cn1c(N2CCCCCC2)nc2c1c(=O)[nH]c(=O)n2C ?
H5N1 antiviral: 1.3

What do the screens show for `O=C(CN1C(=O)CCS(=O)(=O)c2ccccc21)NCc1ccc2c(c1)OCO2`?
H5N1 antiviral: 0.4

What do the screens show for `CCCN1Cc2cccc(C(=O)NC3CCCC3)c2C1=O`?
H5N1 antiviral: inactive

How did OC(CNCCCN1CCCCC1)COc1ccccc1 (stereo unspecified) do in these assays?
H5N1 antiviral: 0.9

What do the screens show for `COc1ccc(C2C3=C(CC(C)(C)CC3=O)Nc3n[nH]c(C)c32)cc1` (stereo unspecified)?
H5N1 antiviral: inactive

How did Cc1ccc(CONC(=O)/N=C/N(C)C)cc1 do in these assays?
H5N1 antiviral: inactive

What do the screens show for `CCCS(=O)(=O)N1CCCC(C(=O)NC2CCCCC2)C1` (stereo unspecified)?
H5N1 antiviral: inactive

Results for CCOC(=O)c1[nH]c2ccccc2c1NC(=O)CN(C)C ?
H5N1 antiviral: inactive

Results for CC(=O)Nc1ccc(OCC(O)Cn2nc(C)c(C(C)=O)c2C)cc1 (stereo unspecified) ?
H5N1 antiviral: inactive

How did Cc1cc(C)n(C(=O)CCC(=O)NCc2ccccc2)n1 do in these assays?
H5N1 antiviral: inactive

Results for Nn1c(SCc2csc(-c3ccccc3)n2)nnc1-c1cccs1 ?
H5N1 antiviral: 0.2

Results for O=C(O/N=C\c1ccc(N2CCCCC2)c([N+](=O)[O-])c1)c1cccc(Cl)c1 ?
H5N1 antiviral: inactive

How did C=CCNc1oc(-c2cccc3ccccc23)nc1C#N do in these assays?
H5N1 antiviral: 2.0

How did Cc1oc(CC(C)C)c(CN2CCCC2)c1C(=O)O do in these assays?
H5N1 antiviral: 0.5

What do the screens show for `Cc1cccc(Oc2ncc(-c3ccc(Cl)cc3)cn2)c1`?
H5N1 antiviral: 0.3

What do the screens show for `Cc1ccc(/C=C/S(=O)(=O)N2CCC(C(=O)O)CC2)cc1`?
H5N1 antiviral: inactive

How did CCCCn1c(-c2nonc2N)nc2ccccc21 do in these assays?
H5N1 antiviral: inactive

How did Cc1ccc(C(=O)N(c2c(C)n(C)n(-c3ccccc3)c2=O)C(C)C)cc1 do in these assays?
H5N1 antiviral: 0.9

What do the screens show for `O=C(c1noc2c1CCCC2)N1CCN(Cc2ccccc2)CC1`?
H5N1 antiviral: inactive

Results for O=C(c1ccc(S(=O)(=O)N2CCCCC2)cc1)N1CCCc2ccccc21 ?
H5N1 antiviral: inactive

What do the screens show for `O=C(CSc1nnnn1C1CCCCC1)N1c2ccccc2Sc2ccccc21`?
H5N1 antiviral: 0.1

Results for Cc1ccc(NCCc2ccc(C)nc2)cc1 ?
H5N1 antiviral: inactive

What do the screens show for `Nc1nnc(SCC(=O)N2CCc3ccccc32)n1-c1ccccc1`?
H5N1 antiviral: 0.7

How did O=C(NCCCN1CCOCC1)c1cc2c(=O)[nH]c3ccccc3c2s1 do in these assays?
H5N1 antiviral: 0.2

Results for COc1ccc(OC)c(N(CC(=O)Nc2cccnc2)S(=O)(=O)c2ccc(OC)c(OC)c2)c1 ?
H5N1 antiviral: 1.2

Brought forward from above: three compounds, followed by the next part.
What do the screens show for `Nc1nnc(SCC(=O)N2CCc3ccccc32)n1-c1ccccc1`?
H5N1 antiviral: 0.7

How did O=C(NCCCN1CCOCC1)c1cc2c(=O)[nH]c3ccccc3c2s1 do in these assays?
H5N1 antiviral: 0.2

Results for COc1ccc(OC)c(N(CC(=O)Nc2cccnc2)S(=O)(=O)c2ccc(OC)c(OC)c2)c1 ?
H5N1 antiviral: 1.2

Results for Cc1ccc(C2CC(=O)c3cnc(N4CCN(c5ccccc5)CC4)nc3C2)cc1 (stereo unspecified) ?
H5N1 antiviral: 0.4

Results for O=C(Cc1ccccc1)N/N=C\c1ccc(Br)o1 ?
H5N1 antiviral: 0.4

How did COc1ccc(CN(Cc2cc3cccc(C)c3[nH]c2=O)C(=O)N(C)C)cc1 do in these assays?
H5N1 antiviral: inactive

What do the screens show for `Cc1ccc(NC(=O)/C(=C\c2ccccc2)NC(=O)/C=C/c2ccccc2)cc1`?
H5N1 antiviral: inactive

Results for CCOC(=O)c1cc(C(=O)OCC)cc(-n2c(C)cc(C(=O)CN3CCOCC3)c2C)c1 ?
H5N1 antiviral: 0.1

What do the screens show for `COc1ccc(S(=O)(=O)Nc2cc(C(=O)NC(C)C)ccc2N2CCOCC2)cc1`?
H5N1 antiviral: 1.7

What do the screens show for `O=C(N/N=C\C=C\c1ccc2c(c1)OCO2)C1COc2cc3ccccc3cc2O1` (stereo unspecified)?
H5N1 antiviral: inactive

What do the screens show for `Cc1ccc(-c2noc(-c3cc4ccccc4oc3=O)n2)cc1`?
H5N1 antiviral: inactive

How did CCOC(=O)N1CCN(c2c(NCC3CCCO3)c(=O)c2=O)CC1 (stereo unspecified) do in these assays?
H5N1 antiviral: 3.4

How did C=CCOC(=O)c1[nH]c2c(c1C)C(=O)CC(c1cc(OC)c(OC)c(OC)c1)C2 (stereo unspecified) do in these assays?
H5N1 antiviral: 3.7

Results for COc1ccc(C(=O)N/N=C(\C)Cn2nc([N+](=O)[O-])cc2C)cc1 ?
H5N1 antiviral: 0.7

How did Cc1ccc(NC(=O)CN2C(=O)C3CCCCN3C(=O)c3ccccc32)cc1 (stereo unspecified) do in these assays?
H5N1 antiviral: inactive

How did Cc1cc(C(=O)OCC(=O)c2ccc(Br)s2)c(C)o1 do in these assays?
H5N1 antiviral: inactive

What do the screens show for `CCSc1nc(=S)n(-c2ccccc2)c(C)c1C(C)=O`?
H5N1 antiviral: 0.4

Results for COc1ccccc1-c1nnc2n1N=C(c1ccc(O)c(O)c1)CS2 ?
H5N1 antiviral: 1.2

Results for C=CCONC(=O)c1cc(OCC(F)(F)F)ccc1OCC(F)(F)F ?
H5N1 antiviral: inactive

What do the screens show for `Cc1ccn2cc(C(=O)Nc3nnc(C)s3)nc2c1`?
H5N1 antiviral: 4.8

How did Cc1ccc(C2CC(C(F)(F)F)n3ncc(C(N)=O)c3N2)cc1 (stereo unspecified) do in these assays?
H5N1 antiviral: 0.6

Results for Cc1nc(CNS(=O)(=O)c2cc(C)c(C)cc2C)cs1 ?
H5N1 antiviral: 0.9

How did Cc1cccc(C)c1-n1c(C)cc(/C=N/NC(N)=S)c1C do in these assays?
H5N1 antiviral: inactive

What do the screens show for `CCOc1ccccc1NC(=O)C1CCCN(S(=O)(=O)c2c(C)[nH]c(=O)[nH]c2=O)C1` (stereo unspecified)?
H5N1 antiviral: 0.1

What do the screens show for `COc1ccc(C2C(C(=O)c3ccc(C)o3)=C(O)C(=O)N2c2cc(C)on2)cc1OC` (stereo unspecified)?
H5N1 antiviral: 0.1

Results for COc1ccc(CN(Cc2cc3cc(C)ccc3[nH]c2=O)C(=O)N(C)C)cc1 ?
H5N1 antiviral: 1.4

How did Cc1ccc(-c2nn(-c3ccccc3)cc2C(=O)N2CCOCC2)cc1 do in these assays?
H5N1 antiviral: 1.7

Results for CCCCSc1nc(C)cc(NC(=S)Nc2ccc(OC)cc2)n1 ?
H5N1 antiviral: inactive

What do the screens show for `O=C(CSc1nnc(Cc2cc(=O)[nH]c(=O)[nH]2)n1-c1ccc(Cl)cc1)NC1CCCC1`?
H5N1 antiviral: 0.5

Results for CC(=O)NCCn1c(SCc2ccc(C)cc2)nc2ccccc2c1=O ?
H5N1 antiviral: 0.6

What do the screens show for `CCCCNC(=O)Oc1cccc(N2CCCC2=O)c1`?
H5N1 antiviral: 0.0

Results for COc1ccc(-c2ccnc(-c3ccc(OCCCF)cc3)n2)cc1 ?
H5N1 antiviral: inactive

How did C=CCN=C1SCC(=O)N1S(=O)(=O)c1ccc(C)cc1 do in these assays?
H5N1 antiviral: 0.7

Pulled by compound from above (7):
Results for COc1ccc(-c2ccnc(-c3ccc(OCCCF)cc3)n2)cc1 ?
H5N1 antiviral: inactive

How did C=CCN=C1SCC(=O)N1S(=O)(=O)c1ccc(C)cc1 do in these assays?
H5N1 antiviral: 0.7

Results for CC(=O)NCCn1c(SCc2ccc(C)cc2)nc2ccccc2c1=O ?
H5N1 antiviral: 0.6

What do the screens show for `O=C(CSc1nnc(Cc2cc(=O)[nH]c(=O)[nH]2)n1-c1ccc(Cl)cc1)NC1CCCC1`?
H5N1 antiviral: 0.5

What do the screens show for `COc1ccc(C2C(C(=O)c3ccc(C)o3)=C(O)C(=O)N2c2cc(C)on2)cc1OC` (stereo unspecified)?
H5N1 antiviral: 0.1

How did Cc1ccc(-c2nn(-c3ccccc3)cc2C(=O)N2CCOCC2)cc1 do in these assays?
H5N1 antiviral: 1.7

Results for CCCCSc1nc(C)cc(NC(=S)Nc2ccc(OC)cc2)n1 ?
H5N1 antiviral: inactive

(next part)
Results for C=CCOn1c(=O)c(-c2cccs2)[n+]([O-])c2ccccc21 ?
H5N1 antiviral: inactive

Results for CN1CCC(n2nccc2N)CC1 ?
H5N1 antiviral: 0.2

What do the screens show for `O=C(Nc1ccccc1OC(F)F)c1ccccc1`?
H5N1 antiviral: inactive

Results for CCOC(=O)c1cccc(NC(=O)CSc2nnc(C3CCCCC3)n2CC)c1 ?
H5N1 antiviral: 0.6

How did O=C(O)CSCc1ccc(Cl)cc1 do in these assays?
H5N1 antiviral: 0.1

What do the screens show for `COc1ccc(NC(=O)NCCN2CCN(c3cccc(Cl)c3)CC2)cc1`?
H5N1 antiviral: inactive

How did COc1ccc2c(c1)c(C(O)CN1CCC(Cc3ccccc3)CC1)c(C)n2C (stereo unspecified) do in these assays?
H5N1 antiviral: inactive

Results for Cc1ccc(S(=O)(=O)N2CCN(C3CC(=O)N(CCc4ccccc4)C3=O)CC2)cc1C (stereo unspecified) ?
H5N1 antiviral: 0.1

What do the screens show for `CC(=O)c1cccc(NS(=O)(=O)c2c(C)n[nH]c2C)c1`?
H5N1 antiviral: 0.3

What do the screens show for `CCCc1nn(CCc2ccccn2)c(N)c1CC`?
H5N1 antiviral: 1.1

What do the screens show for `CN1C(=O)C2(C(C#N)=C(N)N(c3ccc(Cl)cc3)C3=C2C(=O)CC(C)(C)C3)c2ccccc21` (stereo unspecified)?
H5N1 antiviral: 2.4

What do the screens show for `CC1(C)CC(=O)C2=C(C1)N(c1ccccc1)C(N)=C(C#N)C2c1ccccc1` (stereo unspecified)?
H5N1 antiviral: inactive

How did Cc1c(NC(=O)c2ccc(N3CCCC3)c([N+](=O)[O-])c2)cccc1-c1nc2ccccc2s1 do in these assays?
H5N1 antiviral: inactive

Results for COc1ccccc1/C=N/N=C(/N)N[N+](=O)[O-] ?
H5N1 antiviral: 0.2

How did CCOc1ccccc1NC(=O)CSc1c(C)n[nH]c1C do in these assays?
H5N1 antiviral: inactive

How did COc1ccccc1NCCC(=O)OCC(=O)NCc1ccco1 do in these assays?
H5N1 antiviral: inactive

Results for CCc1ccc(NC(=O)Cc2cn(C)c3ccccc23)cc1 ?
H5N1 antiviral: inactive

How did Cc1cc2c(c(=O)n1CCN(C)C)C(c1ccc(Cl)cc1)C(C#N)=C(N)O2 (stereo unspecified) do in these assays?
H5N1 antiviral: inactive

Results for COc1ccc(-c2[nH]nc3oc(=O)cc(C)c23)cc1 ?
H5N1 antiviral: 1.6

What do the screens show for `CCOC(=O)NCc1ccc2c(c1)OCO2`?
H5N1 antiviral: inactive

How did FC(F)(F)c1nnc(-c2ccccc2)nc1Oc1ccccc1 do in these assays?
H5N1 antiviral: inactive

How did O=C(NNS(=O)(=O)c1ccc(Cl)cc1)C1CCN(Cc2ccccc2)CC1 do in these assays?
H5N1 antiviral: inactive

What do the screens show for `O=C(Oc1cccc(NC(=O)c2ccco2)c1)c1cccc(S(=O)(=O)N2CCCC2)c1`?
H5N1 antiviral: inactive

Results for COc1ccc(C(=O)N2c3ccc(F)cc3CCC2C)cc1OC (stereo unspecified) ?
H5N1 antiviral: 0.8

How did CCC1CCCN1Cn1cnc2c([nH]c3ccc(OC)cc32)c1=O (stereo unspecified) do in these assays?
H5N1 antiviral: 0.1

What do the screens show for `O=C(O)C1CCCN1C(=O)Nc1ccccc1` (stereo unspecified)?
H5N1 antiviral: inactive

How did CCN(CC)C(=O)C(=O)c1cccn1-c1cccc(Cl)c1C#N do in these assays?
H5N1 antiviral: 0.2

How did Cc1c(NC(=O)c2cc(-c3ccco3)on2)c(=O)n(-c2ccccc2)n1C do in these assays?
H5N1 antiviral: 2.8

How did CCC(CC)COC(=O)C(C#N)c1nc2ccccc2nc1N1CCOCC1 (stereo unspecified) do in these assays?
H5N1 antiviral: 0.1

What do the screens show for `CC1CCc2nc(NC(=O)CN3CCOCC3)sc2C1` (stereo unspecified)?
H5N1 antiviral: 0.4

Results for O=C(CN1C(=O)c2ccccc2C1=O)Nc1ccc2c(c1)OCO2 ?
H5N1 antiviral: inactive

Results for Cc1ccc(-c2[nH]nc(N)c2N=Nc2ccccc2C)cc1 ?
H5N1 antiviral: inactive

Results for O=C(Cn1ccc2ccccc2c1=O)NCCC(=O)NC1CCN(Cc2ccccc2)CC1 ?
H5N1 antiviral: 0.8

Results for C/C(=N\NC(N)=O)c1ccc(Cl)cc1 ?
H5N1 antiviral: 0.9

How did CCOC(=O)Cn1nnnc1CN(Cc1ccc(OC)cc1)Cc1cc2cc(C)ccc2[nH]c1=O do in these assays?
H5N1 antiviral: 3.8

What do the screens show for `N=C1C(c2nc(-c3ccc(F)cc3)cs2)=C(O)CN1CCCN1CCOCC1`?
H5N1 antiviral: inactive

What do the screens show for `OC(C#CCN1CCOCC1)c1cccs1` (stereo unspecified)?
H5N1 antiviral: inactive

This is a subset (hit frequency here may not be typical).
